Cruzain inh Det – blocks cruzain activity in presence of Triton detergent; P25779; purified cruzain, Z-FR-AMC fluorescence, 0.01% Triton; Potency, µM, for the others: max response, negative = inhibition, actives largely listed as inhibitors; actives 0.43% (n = 200,000); AID 1478; active = well fitted curve in the direction sought with a large enough effect; inconclusive = small, poorly fitted or top-dose-only effect, or another doubt; inactive = no such curve, though single readings can be large; an effect the other way counts as inactive or inconclusive;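 also: plate controls were neutral wells for no effect and buffer without enzyme for full effect; nearly all actives have a fitted effect of over 40% in size; top concentration of the series not given in the record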
Target sequence (P25779 123-467 limits assumed): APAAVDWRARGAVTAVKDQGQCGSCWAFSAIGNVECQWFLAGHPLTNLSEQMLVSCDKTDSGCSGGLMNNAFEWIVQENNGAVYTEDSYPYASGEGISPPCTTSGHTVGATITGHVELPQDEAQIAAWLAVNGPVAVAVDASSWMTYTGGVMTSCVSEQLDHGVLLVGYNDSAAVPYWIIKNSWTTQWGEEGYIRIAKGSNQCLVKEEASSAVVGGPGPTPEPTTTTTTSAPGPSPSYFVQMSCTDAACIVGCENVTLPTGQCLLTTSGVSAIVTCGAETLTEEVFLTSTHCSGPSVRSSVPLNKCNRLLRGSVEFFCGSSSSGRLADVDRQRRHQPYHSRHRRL
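Read-out: AMC fluorescence (360 nm excitation, 450 nm emission), four reads over 2 min, first-to-third difference used. Conditions: cruzain 1.5 nM, Z-FR-AMC 2 uM, pH 5.5 acetate, 5 mM DTT, 0.01% Triton X-100.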
2A StopGo – lowers the luciferase signal of an FMDV 2A StopGo reporter; Potency, µM (series often up to 57.9 µM), for the others: at the highest dose signal change, negative = less light; human cells with a luciferase reporter of 2A StopGo recoding; control for the full effect not named in the record; AID 1159524; actives 1.2% (n = 410,000); active = well fitted falling curve with a large enough effect; inconclusive = small, poorly fitted or top-dose-only effect; inactive = no such curve, though single readings can be large or run the other way; tested in HEK293T cells; also: % is scaled to controls: 0 for no effect and ±100 for the full control effect; nearly all actives have a fitted effect of over 45% in size; luciferase light after 4 h
RE007 growth inh – less growth of the S. pombe RE007 Vpr strain | AID 651644 | actives 0.21% (n = 360,000) | Potency, µM (top dose mostly 92.2 µM), inactives show at the top dose activity change, negative = less growth | S. pombe RE007 Vpr strain, BacTiter-Glo ATP luminescence, 24 h; control for the full effect not named in the record; active = well fitted falling curve with a large enough effect; inconclusive = small, poorly fitted or top-dose-only effect; inactive = no such curve, though single readings can be large or run the other way;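 also: % is scaled to controls: 0 for no effect and ±100 for the full control effect; nearly all actives have a fitted effect of over 50% in size; the assay follows cell death caused by Vpr and the record does not say whether a fall means rescue or toxicity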
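Fission yeast strain RE007, carrying one chromosomally integrated HIV-1 vpr copy, was seeded at OD 0.01 in PMG+AL medium with 23 nL pinned compound. After 24 h at 30 °C and 99% humidity, viability was read by BacTiter-Glo luminescence.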
Cruzain inh noDet – cruzain (T. cruzi) inhibition without detergent. purified cruzain, Z-FR-AMC fluorescence, no detergent. actives 2.3% (n = 200,000). Potency, µM, for inactives: max response, negative = inhibition, actives largely listed as inhibitors; active = well fitted curve in the direction sought with a large enough effect; inconclusive = small, poorly fitted or top-dose-only effect, or another doubt; inactive = no such curve, though single readings can be large; an effect the other way counts as inactive or inconclusive;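 also: plate controls were enzyme without inhibitor for no effect and buffer without enzyme for full effect; nearly all actives have a fitted effect of over 40% in size; top concentration of the series not given in the record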
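Detergent-free condition (0.00005% Triton X-100) in acetate buffer pH 5.5 with DTT. 1.5 nM enzyme and compound were pre-mixed 15 min, then 2 uM Z-FR-AMC substrate added; reaction progress from fluorescence change between first and third reads (60 s).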
MARV entry inh – Marburg virus entry inhibition. Marburg virus pseudotyped entry inhibition, cell reporter; control for the full effect not named in the record; about a third of the inactives were read at about 46 µM. Potency, µM (highest dose often 37.8 µM), for the others: top-dose activity change, negative = inhibition, actives largely listed as inhibitors. actives 1.8% (n = 300,000). AID 540276; active = well fitted inhibition curve with a large enough effect; inconclusive = small, poorly fitted or top-dose-only effect, or effect the other way; inactive = flat fitted curve, though single readings scatter; tested in HEK293 cells; about a fifth of its hits are not listed in these tables; also: % is scaled to controls: 0 for no effect and ±100 for the full control effect; luciferase read-out
NS1 function inh – inhibitors of influenza NS1 protein function. AID 2326. Potency, µM (highest dose often 46.1 µM), without a hit: at the top dose activity, positive = more growth. S. cerevisiae slowed by influenza A NS1, growth recovery by OD600. actives 0.4% (n = 270,000); also: actives are rising curves; nearly all actives have a fitted effect of over 50% in size
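S. cerevisiae expressing influenza A NS1, grown in glucose, washed, then diluted 1:100 into pH 6.0 -URA galactose medium with 23 nl compound. Growth recovery read as OD600; NS1-free strain serves as control.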
SARS PLP yeast – inhibitors of SARS-CoV papain-like protease in yeast | Potency, µM (top dose mostly 32.9 µM), inactives show at the top dose activity, positive = growth rescue | S. cerevisiae expressing SARS-CoV PLpro, growth rescue; control for the full effect not named in the record | actives 0.19% (n = 330,000); also: 0% is about no effect; nearly all actives have a fitted effect of over 55% in size; growth read by luminescence after 48 h
Lassa entry inh – blocks Lassa virus binding to or entry into cells. Lassa virus pseudotype entry inhibition, cell reporter; control for the full effect not named in the record. Potency, µM (highest dose often 37.9 µM), without a hit: at the top dose activity change, negative = inhibition, usual class: inhibitors. actives 1.2% (n = 300,000); active means well fitted inhibition curve with a large enough effect; inconclusive means small, poorly fitted or top-dose-only effect, or effect the other way; inactive means flat fitted curve, though single readings scatter; tested in HEK293 cells; also: % is scaled to controls: 0 for no effect and ±100 for the full control effect; nearly all actives have a fitted effect of over 50% in size; luciferase read-out
Starred values were filed as active, the others as inactive; ? = inconclusive; . = not tested or not shown; & = joins results of further samples; [ ] = another dose, or the depositor's remark. Unless noted, calls follow the shape of the dose curve; as a rule, active means well fitted rising curve with a large enough effect; inconclusive means small, poorly fitted or top-dose-only effect; inactive means no such curve, though single readings can be large or run the other way. Potency is read from the fitted curve at half-maximal effect.

molecule	Cruzain inh Det	2A StopGo	RE007 growth inh	Cruzain inh noDet	MARV entry inh	NS1 function inh	SARS PLP yeast	Lassa entry inh
Cc1ccc(S(=O)(=O)CCN2CCC(O)(c3ccccc3)CC2)cc1	.	-17%	-2%	.	.	0%	-1%	.
CNC(=O)C(=O)Nc1ccc(C)cc1C	.	-13%	-7%	.	.	-1%	0%	.
COc1ccccc1NC(=O)C1=C(C)Nc2nc(SCc3cccc(F)c3)nn2C1c1ccc(C(=O)O)cc1 (centres undefined)	1.3%	-12%	.	11%	?	.	8%	-13%[46.1 µM]
CC(=O)Nc1ccccc1C(=O)C(=O)Nc1ccc(F)c(Cl)c1	.	66%[activator]	-8%	.	.	13%	-6%	.
Cc1ccsc1/C=N/N1CCN(c2ccccn2)CC1	.	8%	-21%	.	?	-37%	-2%	15%[46.1 µM]
COc1ccc2c(c1)[nH]c1c(=O)n(CCCn3ccnc3)cnc12	-0.2%	-11%	-2%	-5%	-10%	-3%	-1%	-4%
CCC(CC)NC(=O)c1cccc([N+](=O)[O-])c1C	0.3%	-16%	0%	4%	-8%	23%	5%	-28%
O=C(c1cc(-c2ccc(Cl)cc2)on1)N1CCOCC1	2.9%	-41%	4%	-7%	?	-2%	1%	9.2µM*
COc1ccc(-c2cc(C(=O)Nc3ccc(OC)cc3OC)no2)cc1	.	-19%	2%	.	.	3%	-2%	.
Cc1ccc(-n2c(SCC(N)=O)nnc2-c2ccco2)cc1	.	-16%	8%	.	.	-4%	-6%	.
NC(=O)C[C@@H]1N[C@]2(C(=O)Nc3ccccc32)[C@@H]2C(=O)N(c3cc(C(F)(F)F)ccc3Cl)C(=O)[C@H]12	-2.4%	2%	-3%	1%	29%	5%	1%	-1%
Cc1ccsc1-c1nc(CSCC(=O)N2CCN(c3ccccc3)CC2)c(C)o1	-0.7%	?	-11%	?	0%	-49%	-3%	.
Cc1cccc(OCCC(=O)Nc2c(C)n(C)n(-c3ccccc3)c2=O)c1	3.7%	5%	-18%	-1%	2%[46.1 µM]	-3%	2%	-5%
O=C(NC1CCCCCCC1)c1ccc(CNc2c(N3CCOCC3)c(=O)c2=O)cc1	-1.3%	25%	1%	-10%	0%	-23%	16%	6%
Cc1ccc(OCCn2cc(/C=C/C(=O)O)c3ccccc32)cc1	.	-10%	-20%	.	.	-10%	-2%	.
Cc1ccc(-n2c(SCC(=O)Nc3ccc4c(c3)OCO4)nnc2-c2cccs2)cc1	-2.8%	4%	7%	0%	-10%	-15%	-7%	1%
COc1ccc(NC(=O)c2ccco2)cc1NC(=O)c1cccc(OC(C)C)c1	-2.9%	-8%	-3%	25%	?	-53%	-14%	10µM*
O=C(CN1CCN(S(=O)(=O)c2ccccc2)CC1)NC1CC1	.	-6%	1%	.	1%[46.1 µM]	-4%	-1%	7%
Cc1ccc(NC(=O)c2c(C)oc3ncn(C)c(=O)c23)cc1F	-2.4%	-8%	.	-4%	.	.	.	10%[46.1 µM]
Fc1ccc(-[n+]2nc(Nc3ccccc3)sc2-c2ccc(OCc3ccccc3)cc2)cc1	.	-10%	-9%	.	.	15%	-16%	.
COc1ccc(-c2cc(C(=O)NC3=NCCS3)c3ccccc3n2)cc1OC	.	12%	-16%	.	?	1%	0%	-9%
CC(=O)c1ccc(N2CCN(Cc3cc(=O)n4c(-c5ccccc5)csc4n3)CC2)cc1	.	-25%	33%	.	-24%[46.1 µM]	.	.	?
N/C(=N\OC(=O)c1ccccc1Br)c1ccc([N+](=O)[O-])cc1	.	59%[activator]	2%	.	.	-8%	-6%	.
CCc1cccc(CC)c1NC(=O)COC(=O)c1cccc(-c2ccc(OC(C)=O)cc2)c1	-1.7%	-17%	-26%	?	6%	6%	3%	?
O=C1c2cccc([N+](=O)[O-])c2C(=O)N1CCO	.	-12%	-6%	.	4%	.	-1%	-1%
CCCCCOC(=O)C1[C@H]2C(=O)N(c3ccccc3CC)C[C@]23C=C[C@H]1O3 (some centres undefined)	-17%	8%	8%	20%	-23%	-5%	-5%	6%
Cc1cc2ccccc2cc1C(=O)c1ccccc1	.	31%[activator]	?	.	?	.	.	-14%[46.1 µM]
CCOc1ccc(C(=O)CCC(=O)N2CCC(C(=O)OC)CC2)cc1	.	1%	3%	.	.	-7%	-2%	.
O=C(Cc1ccccc1)Nc1ccccc1C(=O)O	2.6%	53%[activator]	3%	-4%	26%	-5%	5%	-5%
Cc1ccc(C(=O)NCCSc2c[nH]c3ccccc23)cc1C	-7.9%	-4%	.	10%	?	.	.	18%[46.1 µM]
COc1ccccc1NC(=O)Nc1nc(CC(=O)NCc2ccccn2)cs1	.	-27%	-8%	.	-6%	.	1%	-16%
CSC1=NC2(C[C@H]2c2ccccc2)C(=O)N1C (some centres undefined)	.	-2%	-13%	.	5%	.	.	?
CC1SCC(=O)N(CC(=O)NCc2ccccc2)C1=O (centres undefined)	-2.4%	26%	11%	16%	-26%	0%	18%	7%
Cc1ccc(SCC(=O)OCC(=O)NCc2cccs2)cc1	.	-10%	1%	.	2%[46.1 µM]	.	-8%	13%
COc1ccc(NC(=O)c2ccc(CNc3c(NC4CCCCC4)c(=O)c3=O)cc2)c(OC)c1	0.0%	58%&50%[activator]	-13%&4%	?	-12%&-12%	7%	6%	13%
COc1ccccc1NC(=O)CN(c1ccc([N+](=O)[O-])cc1)S(=O)(=O)c1ccccc1	-7.2%	-12%	7%	9%	?	9%	6%	?
Cc1nc(NC(=O)c2ccccc2)sc1C1(C)CC(c2c(Cl)cccc2Cl)=NO1 (centres undefined)	.	-24%	-4%	.	.	9%	-3%	.
COc1cc2c(c(OC)c1OC)-c1ccc(SC)c(=O)cc1C(NC(=O)c1ccccc1)CC2 (centres undefined)	.	-10%	1%	.	?	.	.	.
COc1ccc(NC(=O)/C(C#N)=C/c2ccc(OCc3cc(=O)n4nc(C)sc4n3)cc2)cc1	-1.5%	-10%	.	-15%	2%[46.1 µM]	.	.	6%[46.1 µM]
COc1cccc(-c2nc(CSCC(=O)NCC3CCCO3)c(C)o2)c1 (centres undefined)	1.1%	-13%	0%	-2%	-21%	-1%	5%	1%
COc1ccc(C(=O)n2nc(C)c(Br)c2C)cc1	5.7%	18%	-2%	0%	-4%	2%	6%	3%
COc1ccc(S(=O)(=O)N2CCC(C(=O)N3CCCCC3)CC2)cc1OC	2.8%	0%	-1%	10%	?	-5%	-5%	-13%
COc1ccc(OC)c(/C=N/NC(=O)c2cc3c(OC)c(OC)ccc3[nH]2)c1	-13%	-9%	10%	?	-17%	16%	4%	-6%
CS(=O)(=O)Nc1cccc(C(=O)OCCCOc2ccc(F)cc2)c1	.	-9%	17%	.	9%[46.1 µM]	-4%	-1%	-6%[46.1 µM]
Cc1ccc(C(=O)Nc2ccccc2-c2ccccc2)cc1[N+](=O)[O-]	-2.4%	-24%	-29%	4%	-29%	0%	-1%	-8%
CC(C)c1ccc(CN(Cc2ccco2)c2cnc(S(C)(=O)=O)nc2C(=O)Nc2ccc(F)cc2)cc1	-2.5%	-22%	.	16µM*	?	.	.	?
O=c1c2ccccc2cnn1-c1ccc(Cl)nn1	.	40%[activator]	37%	.	?	6%	1%	21%
Cc1ccc(C(=O)CCc2ccc(N)cc2)cc1	.	50%[activator]	9%	.	.	1%	0%	.

In the list so far, these contain bromine:
molecule	Cruzain inh Det	2A StopGo	RE007 growth inh	Cruzain inh noDet	MARV entry inh	NS1 function inh	SARS PLP yeast	Lassa entry inh
N/C(=N\OC(=O)c1ccccc1Br)c1ccc([N+](=O)[O-])cc1	.	59%[activator]	2%	.	.	-8%	-6%	.
COc1ccc(C(=O)n2nc(C)c(Br)c2C)cc1	5.7%	18%	-2%	0%	-4%	2%	6%	3%

The listing continues.
molecule	Cruzain inh Det	2A StopGo	RE007 growth inh	Cruzain inh noDet	MARV entry inh	NS1 function inh	SARS PLP yeast	Lassa entry inh
O=c1[nH]cnc2c1c(-c1ccccc1)cn2-c1cccc(Cl)c1	.	-10%	19%	.	.	-2%	-52%	.
N#CCCN(CCC#N)C(=O)C1c2ccccc2Oc2ccccc21	.	-3%	0%	.	?	-16%	-7%	9%[46.1 µM]
Clc1ccc(Cl)c(Oc2ccc(Oc3nc(Cl)ccc3Cl)cc2)n1	0.3%	13%	-10%	-29%	7%	-11%	11%	20%
Cc1ccccc1NC(=O)NCCc1ccc(Cl)cc1	.	17%	-18%	.	.	-1%	0%	.
O=C(O)c1ccc(N2C(=O)c3cccc(Oc4ccc(Cl)cc4)c3C2=O)cc1	-6.5%	-22%	3%	14%	-12%[46.1 µM]	-10%	19%	-9%
CCOC(=O)c1cccc(NC(=O)Cn2nc(C)n3cccc3c2=O)c1	.	-12%	0%	.	.	-1%	-1%	.
CCOc1ccc(C2C(C(N)=O)=C(C)Nc3nc(-c4ccc(OC)cc4)nn32)cc1 (centres undefined)	-4.2%	4%	.	26%	-3%[46.1 µM]	.	.	4%[46.1 µM]
CCOC(=O)NCc1cc(-c2nn(C)c(=O)c3ccccc23)ccc1C	-4.0%	0%	0%	-2%	-20%	-8%	-3%	-22%
Cc1nn(-c2cccc(Cl)c2)c2c1C(c1ccncc1)C(C#N)=C(N)O2 (centres undefined)	-14%	?	?	22%	-5%	20%	-3%	-2%
CN(C)C(=O)CSc1n[nH]c(=O)n1CCc1ccccc1	.	21%	11%	.	1%[46.1 µM]	-3%	-3%	?

This is a random part of the collection; 4.7% or so of the library scored in one or more.
